Source: PubChem BioAssay (several laboratories)
ugtP null kill: kills S. aureus RN4220 lacking UgtP. actives 0.54% (n = 330,000). S. aureus RN4220 ugtP deletion, OD600 growth, 16 h; some inactives read as strong as hits. growth inhibition, % (test concentration not listed);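 active means z-score under -3 and OD600 up to 0.15 on both plates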;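 further: plate controls were untreated wells for no effect and antibiotic for full effect; wells of about 80 µL received 100 nL stock; the first replicate is given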
BJeLR lethal: kills HRASV12-expressing BJeLR cells. BJeLR (HRASV12) viability, CellTiter-Glo ATP luminescence, 48 h; reference of the scale not given here. inhibition, % (no concentration beside the values). actives 0.17% (n = 300,000);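 active means replicate mean above 50%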;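 further: 50 nL library stock added to about 25 µL; numbers are from one replicate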
Mtb hypoxia inh: inhibitors of hypoxia-regulated fluorescent reporter in Mycobacterium tuberculosis; AID 1159583; M. tuberculosis hypoxia-regulated fluorescent reporter, fluorescence; fluorescence inhibition, % (test concentration not listed); actives 0.1% (n = 300,000);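 active means 35 to 45% if threefold the growth effect, above 45% if 1.5-fold the growth effect; inactive means the rest, general growth blockers included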;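 further: wells of about 50 µL received 100 nL stock; 0% = vehicle wells and 100% = reference inhibitor wells; whole bacteria with a GFP reporter of the hypoxia response; strong numbers were not always called active; many hits fall short of the cut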
Autofluor counter: counter-screen for toxin protease inhibitors: compound fluorescence. fluorescence intensity (concentration not given with the values). actives 3.1% (n = 360,000). AID 624483. compound autofluorescence counterscreen, microsphere flow cytometry; hits give high values;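 active means at least 3 SD above the mean of all compounds, about 16000 in these data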;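 further: 100 nL of 1 mM stock went into each well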
RN4220 kill: S. aureus RN4220 growth inhibition; OD600, 16 h; inhibition, % (test concentration not listed); actives 0.33% (n = 330,000); AID 1259311;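 active means z-score of -3 or lower and OD600 up to 0.18 on both plates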;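 further: plate controls were untreated cells for no effect and reference antibiotic for full effect; stock transfer was 100 nL into about 80 µL; one replicate is shown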
PrP 5UTR inh: inhibition of PrP 5' UTR reporter expression. cell-based PrP 5' UTR mRNA reporter, plate reader. inhibition, % (concentration not given with the values). actives 0.35% (n = 340,000). AID 488862;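 active means every replicate at 50% or more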;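 further: 0 = median of the neutral control wells; tested in H4 reporter cells; numbers are from one replicate; inactives centre near -14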
Mtb hypoxia inh growth: second read-out of Mtb hypoxia inh, no call of its own (marks repeat the call); growth inhibition, %; measured here: M. tuberculosis growth (absorbance);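 0% = vehicle and 100% = reference antibiotic; read after six days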
* hit, by the source's call; · = no result given. Outcome played no part in choosing rows. Share with any hit: about 4.1%.

The first 2 records as a preview:
SMILES | ugtP null kill | BJeLR lethal | Mtb hypoxia inh | Mtb hypoxia inh growth | Autofluor counter | RN4220 kill | PrP 5UTR inh
CN(C(=O)COC(=O)c1ccc(F)c(S(=O)(=O)N2CCOCC2)c1)C1CCS(=O)(=O)C1 (stereo not given) | 4.0 | -1.5 | -5.5 | 2.0 | 5508 | 1.7 | -4.7
Cc1ccc(/C=N/n2c(C)nc3ccccc3c2=O)o1 | · | 7.2 | · | · | 4079 | · | -4.8

Results, previewed entries included:
SMILES | ugtP null kill | BJeLR lethal | Mtb hypoxia inh | Mtb hypoxia inh growth | Autofluor counter | RN4220 kill | PrP 5UTR inh
CN(C(=O)COC(=O)c1ccc(F)c(S(=O)(=O)N2CCOCC2)c1)C1CCS(=O)(=O)C1 (stereo not given) | 4.0 | -1.5 | -5.5 | 2.0 | 5508 | 1.7 | -4.7
Cc1ccc(/C=N/n2c(C)nc3ccccc3c2=O)o1 | · | 7.2 | · | · | 4079 | · | -4.8
N#CCC(=N)N1CCN(c2ccc(F)cc2)CC1 | 5.2 | 11.3 | 6.3 | 8.4 | 4456 | -2.6 | 4.6
O=C(NCC1CCCO1)c1ccc(-c2ccccc2Cl)o1 (stereo not given) | 0.8 | 4.5 | 11.3 | 8.3 | 4428 | 4.3 | -94.3
CCOc1ccccc1NC(=O)C(=O)/C=C(\O)c1cc(OC)ccc1OC | · | -2.0 | · | · | 3601 | · | -7.8
CC(=O)N1C(C)c2ccccc2C(C)(C)CC12CCCCC2 (stereo not given) | 10.0 | 18.1 | 15.8 | 7.4 | 2560 | 6.1 | 1.6
Cc1ccc(CNC(=O)Cn2cnc(C(=O)Nc3ccc(C)c(C)c3)n2)o1 | 4.5 | · | -13.1 | 3.4 | 3398 | 2.0 | -26.1
Cc1nc(N2CCCCC2)sc1C(=O)c1cccc([N+](=O)[O-])c1 | · | 2.2 | · | · | 2081 | · | -17.0
CCOC(=O)c1[nH]c2ccccc2c1NC(=O)c1nonc1C | -10.3 | -2.2 | 2.1 | 19.0 | 21361* | -1.5 | 3.9
CN(C)NC(=O)C12CCC(C)(C(=O)O1)C2(C)C (stereo not given) | 12.1 | -0.3 | -2.1 | 6.8 | 3002 | 2.0 | -18.7
Cc1cc(NC(=O)c2ccc(N3C(=O)CCC3=O)cc2)no1 | 3.1 | 1.7 | · | · | 4329 | 1.2 | 6.2
OC(COc1ccc(CNCc2cccnc2)cc1)CN1CCc2ccccc2C1 (stereo not given) | 3.6 | -3.3 | 3.5 | 0.0 | 2909 | 0.7 | -0.7
COc1ccc(CCNC(=S)Nc2ccccc2C)cc1 | -1.6 | -2.1 | · | · | 4997 | -1.4 | -67.0
OCCN1CCN(CCSc2ccccc2)CC1 | 2.0 | 2.8 | 7.4 | 5.3 | 4293 | 0.4 | -8.2
Cc1ccc(S(=O)(=O)NCCSc2nnnn2-c2ccc(C(N)=O)cc2)cc1 | 10.4 | 3.0 | 12.5 | 1.4 | 5831 | 1.2 | -2.0
COc1ccc(O)c(/C=N/N=C2/C(=O)Nc3ccccc32)c1 | · | -3.3 | · | · | 4513 | · | -26.8
COc1cc2nc(CN3CC=C(c4ccccc4)CC3)[nH]c(=O)c2cc1OC | 10.4 | 29.6 | 10.6 | -3.6 | 5883 | 1.6 | -19.1
Cc1cccc(-n2c(C)c(C)c3c(N)ncnc32)c1 | -2.8 | 7.9 | 14.4 | 10.6 | 4062 | 2.8 | -26.5
COc1cc2c(C)nc3c(cnn3-c3ccccc3)c2cc1OC | -17.9 | 5.4 | · | · | 2642 | 10.7 | -71.4
C=CCn1c(SCC(=O)Nc2ccc(C(=O)OC(C)C)cc2)nnc1-c1cccs1 | 0.5 | -9.4 | · | · | 4364 | -4.8 | 5.0

Entries of single compounds from above:
`OCCN1CCN(CCSc2ccccc2)CC1` reads ugtP null kill = 2.0; BJeLR lethal = 2.8; Mtb hypoxia inh = 7.4; Mtb hypoxia inh growth = 5.3; Autofluor counter = 4293; RN4220 kill = 0.4; PrP 5UTR inh = -8.2
`CC(=O)N1C(C)c2ccccc2C(C)(C)CC12CCCCC2` (stereo not given) reads ugtP null kill = 10.0; BJeLR lethal = 18.1; Mtb hypoxia inh = 15.8; Mtb hypoxia inh growth = 7.4; Autofluor counter = 2560; RN4220 kill = 6.1; PrP 5UTR inh = 1.6

(further entries)
SMILES | ugtP null kill | BJeLR lethal | Mtb hypoxia inh | Mtb hypoxia inh growth | Autofluor counter | RN4220 kill | PrP 5UTR inh
CCCCCCOc1ccc(N2C(=O)CC(N3CCN(CCN=CC4=C(O)CC(C)(C)CC4=O)CC3)C2=O)cc1 (stereo not given) | 0.2 | 6.0 | 5.8 | -3.3 | 4349 | -1.1 | -36.4
CS(=O)(=O)Nc1ccccc1C(=O)NCCSCc1ccccc1 | 3.8 | -2.2 | 3.9 | 4.4 | 2736 | 1.5 | -41.5
O=C(COc1ccc(Br)cc1CNC1CCCC1)Nc1ccccc1 | -12.5 | -1.2 | -3.8 | 1.1 | 4343 | -6.4 | -30.2
CN(C)C(=O)c1cc([N+](=O)[O-])ccc1O | 12.7 | 3.7 | 15.9 | 6.8 | 4615 | 5.6 | -12.3
CC(C)CN1CCN(Cc2cccn2-c2ccc(Cl)cn2)CC1CCO (stereo not given) | 4.9 | -3.5 | 9.4 | 13.6 | 4565 | 6.8 | -21.8
O=C(Nc1c2c(nn1-c1ccc(F)cc1)CS(=O)C2)c1ccc(Br)o1 (stereo not given) | 1.1 | -0.1 | -3.7 | 2.0 | 5671 | 0.4 | -19.5
COc1cccc(CCNC(=O)C2CCC(=O)N(Cc3cccc(OC)c3)C2)c1 (stereo not given) | 10.8 | 2.6 | 4.6 | 1.5 | 5225 | 3.8 | -16.6
Cc1cc2oc(=O)cc(CN3CCN(S(=O)(=O)c4ccc5c(c4)OCCO5)CC3)c2cc1C | 7.5 | 4.4 | 16.8 | 8.3 | 3140 | 1.9 | -24.7
Cc1cc(=O)oc2cc(NC(=O)CCCC(=O)O)ccc12 | -0.1 | 4.5 | -1.2 | 1.0 | 3386 | -13.7 | -12.6
CS(=O)(=O)N1CCN(c2ccccc2NC(=S)NC(=O)c2cccs2)CC1 | -2.6 | -2.3 | 7.6 | 10.5 | 5256 | 4.3 | -17.4
Nc1ccc2c(c1)C(=O)N(CCCCCC(=O)O)C2 | 7.7 | -0.4 | 3.7 | -3.4 | 4420 | -3.1 | -15.9
C/C(Cl)=C/Cn1c(SCc2ccc(Cl)cc2)nc2c1c(=O)[nH]c(=O)n2C | 34.5 | -5.4 | · | · | 3590 | -2.5 | -1.2
Cc1ccc(Oc2ncccc2NC(=O)CC(CC(=O)O)c2ccccc2)c2c1CCC2 (stereo not given) | 4.9 | -4.1 | 9.3 | 16.4 | 4040 | 0.9 | -3.6
CCOC(=O)N1CCN(CC(=O)Nc2cc(C)nn2-c2nc3ccccc3s2)CC1 | -1.9 | 16.0 | 10.2 | 3.6 | 5185 | 3.4 | -3.6
COc1ncccc1C(=O)NC1CCCc2c1cnn2-c1ccc(C)c(C)c1 (stereo not given) | -7.5 | 7.7 | 3.7 | 8.4 | 5134 | -3.6 | -22.3
COc1ccc(NC(=O)Cc2coc3cc(C)ccc23)cc1S(=O)(=O)N1CCOCC1 | · | -5.6 | · | · | 2469 | · | -17.2
COCCSc1ccccc1C(=O)Nc1ccc(Cl)cn1 | 4.1 | 11.1 | 6.0 | 20.0 | 2542 | 2.6 | -10.8
CC(C)(CSc1nncn1/N=C/c1ccco1)NS(=O)(=O)c1ccc(Cl)cc1 | · | -7.6 | · | · | 2843 | · | -19.6
O=C(COc1ccccc1)NC(=S)Nc1ccc(Br)cn1 | 7.4 | 1.9 | 4.3 | -0.7 | 6150 | 3.4 | ·
CCOC(=O)c1c(NC(=O)CSc2nnc(CN3CCOCC3)n2C)sc2c1CCCC2 | 3.8 | -15.0 | 12.0 | 16.7 | 3397 | 6.8 | -9.0
Cc1ccnc(NC(=O)C2CCCN(c3ncnc4c3nc3n4CCCCC3)C2)c1 (stereo not given) | 6.2 | 2.6 | 3.4 | -8.4 | 4435 | 6.2 | 2.4
CSc1nc(NCc2ccco2)c2sc3nc(C(C)C)c4c(c3c2n1)CC(C)(C)OC4 | -9.5 | 4.7 | -2.2 | 3.4 | 19909* | -5.9 | -10.3
c1cc(CNC23CC4CC(CC(C4)C2)C3)ccn1 | 6.4 | · | -8.9 | -10.0 | 4878 | -0.5 | -24.9
COC(=O)C1=C(c2cc3ccccc3s2)CC2CCC1N2C(=O)NCc1ccc(C(F)(F)F)cc1 (stereo not given) | 4.0 | · | 11.5 | 0.8 | · | -7.9 | ·
CCN(CC)c1ccc(NC(=O)CSc2nc(C)cc(=O)[nH]2)cc1 | 7.2 | -9.7 | 3.0 | -2.3 | 4516 | 3.3 | -8.5
Cc1cccc(-c2noc(Cc3ccc(Cl)cc3)n2)c1 | 19.0 | -0.5 | · | · | 4389 | -6.3 | -29.5
O=C(Nc1ccc(NC(=O)C2CC2)cc1)c1cccs1 | 0.0 | 0.7 | 1.8 | -7.8 | 5813 | -3.2 | -49.4
O=C(NNC(=O)c1cnccn1)c1ccc(Cl)c(Cl)c1 | -0.3 | 8.5 | -5.3 | -3.4 | 5559 | 6.2 | -10.0
O=C(CN1C(=O)NC2(CCOc3ccccc32)C1=O)Nc1cccc([N+](=O)[O-])c1 (stereo not given) | -5.3 | · | 3.4 | -0.3 | 8184 | -2.2 | -19.4
NC(=O)c1ccsc1NC(=O)CCc1ccccc1 | 3.0 | -1.4 | 0.1 | 5.0 | 3397 | -0.7 | -32.6
CCOC(=O)C1CCCN(c2c(NCCc3ccc(S(N)(=O)=O)cc3)c(=O)c2=O)C1 (stereo not given) | -6.9 | 8.0 | -5.9 | -12.6 | 5249 | -0.9 | -12.0
Clc1ccc(CNCC2CCCO2)cc1 (stereo not given) | 9.9 | 1.1 | 6.3 | 5.6 | 4002 | 3.5 | -17.5
CCSc1nc(C)c(CCOc2cccc(C)c2)c(=O)[nH]1 | 6.5 | -2.0 | 4.7 | -1.0 | 4606 | 0.9 | -49.1
N#Cc1ccc(Oc2ccc(-c3cnc4ccccc4n3)cc2)cc1C#N | -2.9 | -3.7 | 0.2 | 3.3 | 10246 | -6.7 | -5.9
CN(Cc1ccc(Br)cc1)C(=O)CCN1C(=O)c2cccc([N+](=O)[O-])c2C1=O | 2.9 | 7.5 | 17.8 | 29.9 | 5316 | -1.4 | -24.0
CC(C)N(CCn1cnc2c([nH]c3ccccc32)c1=O)C(C)C | 2.3 | 2.8 | 4.4 | 9.9 | 4759 | 0.2 | -18.9
Cc1cccc(C)c1Nc1nnc(SCC(=O)NC(=O)c2cccn2C)s1 | -4.1 | -1.4 | 5.4 | 2.7 | 2078 | 2.1 | 5.6
O=C(O)CONC(=O)c1cc(OCC(F)(F)F)ccc1OCC(F)(F)F | 4.4 | 3.3 | 4.9 | 2.7 | 8876 | -1.2 | -30.3
CCOC(=O)CSc1nc2ccccc2c(=O)n1CCN1CCOCC1 | 1.0 | 5.2 | 1.3 | 10.4 | 9950 | 5.9 | -22.0
CN(C)S(=O)(=O)c1ccc(C(=O)OCC(=O)Nc2ccc3c(c2)OCO3)cc1 | 4.8 | · | 21.5* | 57.4* | 8370 | 5.3 | -6.9
COc1ccccc1CNC(=O)c1ccc(CS(=O)(=O)c2ccccc2C)o1 | 2.6 | 1.9 | -2.6 | -6.9 | 5397 | 1.9 | -23.0
CC(=O)c1ccc(S(=O)(=O)Nc2cccc(-c3cn4c(n3)SCC4)c2)cc1 | -1.0 | 1.4 | 10.5 | 3.9 | 2723 | 1.5 | -18.7
O=C(c1ncn[nH]1)N1CCN(c2nc(-c3ccccc3)cs2)CC1 | 13.6 | 0.5 | -6.2 | 5.2 | 2523 | 22.0 | -13.4
CC(=O)Nc1cccc(C(=O)NC2CCCc3c2cnn3-c2ccc(C(C)(C)C)cc2)c1 (stereo not given) | 1.8 | 5.6 | 0.1 | 5.7 | 6022 | 1.6 | -23.0
CC(=O)c1cccc(NC(=O)C(C)OC(=O)CCc2nc3ccccc3c(=O)[nH]2)c1 (stereo not given) | 1.1 | · | -1.6 | 13.0 | 4034 | -1.3 | -13.1
O=C(COC(=O)c1cc(Br)ccc1Cl)NC(=O)NCc1ccccc1 | 0.1 | 6.6 | -2.9 | 8.2 | 1991 | 1.2 | -23.7
COc1ccccc1CNC(=O)COC(=O)c1c(C)nn(-c2ccccc2)c1Cl | 3.3 | -8.5 | 4.0 | 6.3 | 4126 | 1.9 | -4.4
COCCCNC(=O)CSc1nc2ccccc2c(=O)n1CCCN1CCCCC1 | 3.6 | -2.6 | -0.5 | 7.1 | 4142 | 3.9 | -4.3
